CSC inhib – cancer stem cell inhibition; AID 2717; inhibition, % at 7.5 µM; 300,000 compounds, 1.1% hits; cancer stem cell-like cells viability, luminescence;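 active = mean at 75% or more and at least half the replicates too; inconclusive = mean and replicates disagree; tested in HMLE shEcad cells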;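 also: 0% = median of negative and 100% = median of positive control wells; the first replicate is given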
eIF4H inh – inhibitors of RNA binding by human eIF4H; eIF4H fluorescence polarization binding assay; AID 2012; inhibition, % at 35 µM; 290,000 compounds, 0.94% hits; Q15056;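 active = 50% or more with normal probe brightness, or confirmed in later tests; inconclusive = above 50% with abnormal brightness, or retests that disagree; inactive = below 50% or failed in later tests; about a fifth of its hits are not listed in these tables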;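 also: calls also rest on retests at 20 µM and on dose response follow-up; 0% = protein and probe with vehicle and 100% = probe without protein; strong numbers were not always called active; many hits fall short of the cut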
PABP polyA inh – PABP-poly(A) binding inhibition. 290,000 compounds, 1% hits. P11940. PABP-poly(A) RNA binding, fluorescence polarization. inhibition, % at 35 µM. AID 2014;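 active = 50% or more with normal probe brightness, or confirmed in later tests; inconclusive = above 50% with abnormal brightness, or retests that disagree; inactive = below 50% or failed in later tests; about a fifth of its hits are not listed in these tables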;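 also: calls also rest on retests at 20 µM and on dose response follow-up; controls were probe without protein and protein plus probe with vehicle; some compounds called inactive have numbers as strong as hits; many hits fall short of the cut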
Env fusion inh – inhibitors of HIV Env-mediated cell fusion | inhibition, % at 12.3 µM | 360,000 compounds, 1.1% hits | HeLa-JRFL Env/CEM21 cell fusion, luciferase | AID 651610;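 active = mean replicate inhibition score of at least 50 and every replicate individually at or above 50; inconclusive = only one of the two criteria met; inactive = mean below 50 and not all replicates reaching 50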;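 also: 0% = plate neutral controls and 100% = maraviroc near 300 nM; one replicate is shown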
MT1-MMP act inh – MT1-MMP (human) activation inhibition | AID 651647 | GFP/RFP ratio change, % at 20 µM | 360,000 compounds, 0.061% hits | HT1080 RFP-PRO-GFP cells, GFP/RFP ratio fluorescence, overnight; percent of plate control window, DMSO zero;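 active = GFP/RFP ratio change of at least 30% with cell ATP level not reduced by more than half and red fluorescence within 50% of control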; also: strong numbers were not always called active
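Compound: 20 µM single dose, 1% DMSO / System: HT1080 RFP-PRO-GFP cells / Controls: DMSO and RFP-L50D-GFP cell wells / Read-out basis: GFP/RFP fluorescence ratio / Schedule: overnight compound exposure at 37 °C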
Yeast UUG start – alters start codon recognition fidelity in yeast. S. cerevisiae UUG-firefly luciferase reporter, luminescence/redox ratio. activity score, % at 18.7 µM. 350,000 compounds, 0.13% hits. AID 602363;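 active = replicate mean at a twofold rise or more, about +100% in these data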;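 also: firefly luciferase made from a UUG start codon reports start codon fidelity; reporter light over untreated wells divided by growth signal over untreated wells; some hits fall short of that in this replicate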
Rce1 inhib – blocks yeast Ras-converting enzyme. yeast membranes, quenched prenylated peptide cleavage fluorescence. 290,000 compounds, 0.27% hits. calls only. AID 2563. Q03530;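 active = fall in fluorescence gain of 50% or more versus controls, with final raw signal at or below 3038400; inconclusive = same 50% fall but final raw signal above 3038400; inactive = fall in fluorescence gain under 50%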;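 also: plate controls were neutral control wells for no effect and wells lacking membranes for full effect; tested at 10 µM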
Target sequence (Q03530 whole entry, looked up): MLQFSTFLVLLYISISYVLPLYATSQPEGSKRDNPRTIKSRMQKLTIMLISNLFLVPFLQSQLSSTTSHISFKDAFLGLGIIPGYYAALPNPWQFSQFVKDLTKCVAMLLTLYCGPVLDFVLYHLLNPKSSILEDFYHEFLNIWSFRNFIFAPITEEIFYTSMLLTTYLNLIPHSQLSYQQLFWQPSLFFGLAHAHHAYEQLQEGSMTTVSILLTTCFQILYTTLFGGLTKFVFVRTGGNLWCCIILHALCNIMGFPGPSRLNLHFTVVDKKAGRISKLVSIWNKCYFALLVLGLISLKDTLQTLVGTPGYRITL
MT1-MMP act inh RFP – further read-out of MT1-MMP act inh, marked with its call; RFP signal change, %; measured here: RFP expression control read;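 0 = vehicle wells; hits needed this value within 50% of zero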
Starred values were filed as active, the others as inactive; i = inactive; ? = inconclusive; . = no result given; & = joins results of further samples. Not all compounds are listed (hit frequency here may not be typical).

Molecule	Env fusion inh	Rce1 inhib	PABP polyA inh	MT1-MMP act inh RFP	MT1-MMP act inh	Yeast UUG start	eIF4H inh	CSC inhib
Cc1ccc(Oc2ccc(S(=O)(=O)NCC(C)(C)N3CCOCC3)cc2)cc1	7	i	-4	-8	2	-3	-14	3
COc1ccc(OC)c(S(=O)(=O)NC2CC2)c1	-14	i	-5	6	-1	4	0	-16
O=[N+]([O-])c1cc(S(=O)(=O)Nc2ccccc2)ccc1N1CCN(c2ccccc2)CC1	16	i	-7	-20	7	-9	2	30
N#CC(=Cc1cccs1)c1nc(-c2ccc(Cl)cc2)cs1	-38	.	.	-3	-5	-13	.	.
Nc1cc(=O)[nH]c(SCC(=O)NCCC2=CCCCC2)n1	-2	.	.	0	3	1	.	-6
O=S(=O)(c1ccc(Cl)cc1)N1CCN(c2nc(C(F)(F)F)nc3ccccc23)CC1	-61	.	.	-3	-2	-2	.	.
OCCNc1nc(NCCC2=CCCCC2)nc(N2CCOCC2)n1	.	i	-10	-7	0	.	-9	9
O=C(O)c1ccccc1Nc1ccccc1C(=O)O	.	i	-2	3	9	-17	7	.
O=C(O)c1ccc(-n2nnc3ccccc32)c([N+](=O)[O-])c1	-6	i	5	4	1	0	-10	-10
CC1=C(C(=O)OCC2CCCO2)C(c2ccncc2)C2=C(CC(C)(C)CC2=O)N1 (stereo not given)	.	i	-2	1	0	-6	-3	12
Cc1ccc2[nH]c(=S)cc(C)c2c1	21	i	3	5	0	-15	-1	0
CCC(=O)c1ccc(OCC(=O)OCC(=O)NCCC2=CCCCC2)cc1	-8	i	.	-1	1	.	.	-3
Cc1ccc(S(=O)(=O)CCC(=O)OCC(=O)NCCc2ccc(F)cc2)cc1	.	i	.	3	-4	3	.	-3
CC(=O)NC(Cc1ccc(F)cc1)C(=O)NC1CCN(C(=O)Nc2ccc(F)cc2)CC1 (stereo not given)	-4	i	14	0	0	-4	11	-3
CC1CCC(NC(=O)C(C)N2C(=O)C3CCCCC3C2=O)CC1 (stereo not given)	-3	.	.	0	-3	-2	.	-7
O=C(NC1c2ccccc2-c2ccccc21)c1ccccc1	-1	i	-9	1	-2	.	10	1
COc1ccc(NC(=O)C2=CN3CCS(=O)(=O)N=C3C=C2)c(OC)c1	.	.	.	0	-2	0	.	-9
CC(=O)c1cccc(S(=O)(=O)N2CCC(C(=O)Nc3cccc(C(=O)NC4CC4)c3)CC2)c1	1	.	.	2	7	-6	.	-4
Cc1ccc(C)c(NC(=O)CN(C)C(=O)c2cc(C3CC3)nn2-c2ccccc2)c1	.	.	.	-3	-3	-8	.	12
CC(C)(C)n1nnnc1C(c1ccccn1)N1CCN(C(c2ccccc2)c2ccccc2)CC1 (stereo not given)	14	i	-3	0	-1	0	7	6
CCc1nnc(NS(=O)(=O)c2ccc(NC(=O)c3cc(Cl)ccc3OC)cc2)s1	-3	i	16	1	-4	-9	3	9
O=C(NCCC1CCCCN1S(=O)(=O)c1ccccc1)C(=O)NCc1ccccc1F (stereo not given)	28	i	.	0	4	-5	.	-16
Cn1c(=O)n(C)c2cc(/C=N/NC(=S)NCc3ccccc3)ccc21	25	i	5	2	5	.	-1	2
Cc1nc(N)sc1C(=O)Nc1ccccc1	.	i	-2	-3	-6	-15	-3	3
COc1ccc(/C=N/NC(=O)c2cc(C)oc2C)cc1OC	-2	i	1	0	0	.	-2	-24
O=C(Nc1ccccc1)/C(=C\c1ccc2c(c1)OCO2)NC(=O)c1ccco1	.	i	-2	2	3	-8	-3	-8
COc1cc(C(=O)Nn2cnnc2)ccc1OC(F)F	1	i	4	1	-2	-21	-6	-9
COc1ccc(CCNC(=S)NC(=O)/C=C/c2ccc(C)cc2)cc1OC	-42	i	.	-1	-6	-23&1	.	27
COc1cccc(-n2cnc3c(sc4nc(N5CCOCC5)c5c(c43)CCCC5)c2=O)c1	-3	i	-9	-4	-7	.	2	13
O=C(COC(=O)CNS(=O)(=O)c1cccc(Br)c1)Nc1ccccc1Sc1ccccc1	-7	i	-2	4	-3	10	-4	2
CS(=O)(=O)c1cccc(NC(=O)CSc2nnc3n2CCCCC3)c1	2	.	.	9	4	.	.	-8
C/C(=N\NC(=O)c1cc(-c2ccncc2)nc2ccccc12)c1ccc(OC(F)F)cc1	5	i	-8	-5	2	.	-6	-5
COc1ccc2c(c1)c(C(=O)O)c(C)n2-c1ccc(Cl)cc1	17	i	2	-1	-5	-6	-5	-13
C[C@H]1C(=O)N(C)CCN1Cc1cn(C)nc1-c1ccc(Oc2ccccc2)cc1	7	i	-3	-12	2	-15	-7	3
CCCCN(C(C)=O)c1c(CC)nc2ccc(C(=O)NCCc3ccccn3)cn12	-3	.	.	2	-1	-12	.	.
Cc1sc(NC(=O)C2CCCO2)c(C#N)c1C (stereo not given)	.	i	12	0	-1	-13	5	4
Cc1ccc(C(c2nnnn2CS(=O)(=O)c2ccc(C)cc2)N2CCCC2)cc1 (stereo not given)	73*	i	-1	-2	-1	.	4	2
COc1ccccc1N1CCN(C(=O)c2cccc(NC3=NC4CS(=O)(=O)CC4S3)c2)CC1 (stereo not given)	.	i	0	5	1	-15	-10	14
O=C(Nc1ccc2c(c1)OCO2)C1Cc2c(-c3ccccc3Oc3ccccc3)ccnc2O1 (stereo not given)	28	.	.	-24	-11	-21	.	.
CCOC(=O)c1noc(C)c1C(=O)Nc1nccs1	14	i	-3	0	3	-15	3	3

Part of the list above, with each value named.
> O=[N+]([O-])c1cc(S(=O)(=O)Nc2ccccc2)ccc1N1CCN(c2ccccc2)CC1
  Env fusion inh: 16
  Rce1 inhib: i
  PABP polyA inh: -7
  MT1-MMP act inh RFP: -20
  MT1-MMP act inh: 7
  Yeast UUG start: -9
  eIF4H inh: 2
  CSC inhib: 30

> N#CC(=Cc1cccs1)c1nc(-c2ccc(Cl)cc2)cs1
  Env fusion inh: -38
  Rce1 inhib: .
  PABP polyA inh: .
  MT1-MMP act inh RFP: -3
  MT1-MMP act inh: -5
  Yeast UUG start: -13
  eIF4H inh: .
  CSC inhib: .

> Nc1cc(=O)[nH]c(SCC(=O)NCCC2=CCCCC2)n1
  Env fusion inh: -2
  Rce1 inhib: .
  PABP polyA inh: .
  MT1-MMP act inh RFP: 0
  MT1-MMP act inh: 3
  Yeast UUG start: 1
  eIF4H inh: .
  CSC inhib: -6

> O=S(=O)(c1ccc(Cl)cc1)N1CCN(c2nc(C(F)(F)F)nc3ccccc23)CC1
  Env fusion inh: -61
  Rce1 inhib: .
  PABP polyA inh: .
  MT1-MMP act inh RFP: -3
  MT1-MMP act inh: -2
  Yeast UUG start: -2
  eIF4H inh: .
  CSC inhib: .

Next entries
Molecule	Env fusion inh	Rce1 inhib	PABP polyA inh	MT1-MMP act inh RFP	MT1-MMP act inh	Yeast UUG start	eIF4H inh	CSC inhib
CC(=O)Oc1ccccc1-c1nc(C)nc(N(C)C(C)=O)n1	-31	i	-6	4	26	-11	-1	-10
Cc1ccc(-n2c(=O)c3ccccc3n(CC(=O)NCc3ccco3)c2=O)cc1	-15	i	-7	-2	0	-12	-2	-11
Cc1oc2cc(O)ccc2c(=O)c1Oc1ccccc1Br	-9	i	1	-1	2	-14	-1	-3
N/C(=N\OC(=O)c1cccs1)c1cccnc1	-46	i	3	-1	-1	.	3	3
COc1ccc(OCC(=O)N(Cc2cccs2)C2CCS(=O)(=O)C2)cc1 (stereo not given)	-4	i	.	4	2	-12	.	-10
CCNC(=O)Nc1ccc(-n2nc(C)c(C(=O)OCC)c2C)nc1	-5	i	-1	4	2	.	-12	-3
O=C(Nc1ccc(Cl)cc1)N1CCCC1	.	i	-6	2	4	-15	-4	-2
CCOC(=O)C1Nc2ccc(C(F)(F)F)cc2C2C=CCC12 (stereo not given)	-12	i	.	5	2	-21	.	22
COc1cccc(N2CCN(C(=O)CCCCCn3c(=S)[nH]c4cc5c(cc4c3=O)OCO5)CC2)c1	3	i	-12	1	6	-18	-13	15
CC(=O)C1=C(C)NC(=O)NC1/C=C/c1ccccc1 (stereo not given)	7	i	1	0	-2	-8	-9	2
Cc1c(NC(=O)c2ccc(CN3CCc4ccccc4C3)cc2)c(=O)n(-c2ccccc2)n1C	21	i	0	-5	5	-13	-5	.
Cc1ccc2[nH]cc(/C=C/c3cc[n+](C)cc3)c2c1	41	i	?	-22	-134	-9	?	-10
Cc1ccccc1N1CCN(C2CCCN(C(=O)CCN3CCCO3)C2)CC1 (stereo not given)	4	i	-4	1	-1	-11	0	-2
CCn1c(SCC(=O)Nc2ccccc2C(=O)OC)nnc1-c1ccoc1C	.	i	-2	5	-2	-12	-13	-6
CC(C)CC(C(=O)Nc1oc(-c2ccco2)c(-c2ccco2)c1C#N)N1C(=O)c2ccccc2C1=O (stereo not given)	-3	i	78*	3	-13	-8	82*	-2
O=C(O)c1ccc(N2C(=O)CC(SC(=NCc3ccc4c(c3)OCO4)Nc3ccc(F)cc3)C2=O)cc1 (stereo not given)	17	i	0	-11	15	.	-8	2
Cc1ccc(C(c2c(O)nc3n(c2=O)CCS3)c2c(O)nc3n(c2=O)CCS3)cc1	12	i	-9	4	0	.	0	-10
Cc1cc(C(=O)Nc2ccc(Cl)cc2)n(-c2ccccc2)n1	-15	i	-2	-1	-3	4	-2	-2
COc1cccc(CNC(=O)CCC2CCCN(C(=O)Cc3ccccc3F)C2)c1 (stereo not given)	9	i	6	0	-7	.	1	-16
CCn1cc(C(=O)NC(C)C)c(=O)c2cc(F)c(N3CCN(C(=O)c4ccco4)CC3)cc21	10	i	0	0	3	.	-6	2

Pulled one by one from above:
Molecule	Env fusion inh	Rce1 inhib	PABP polyA inh	MT1-MMP act inh RFP	MT1-MMP act inh	Yeast UUG start	eIF4H inh	CSC inhib
Cc1ccc(C(c2nnnn2CS(=O)(=O)c2ccc(C)cc2)N2CCCC2)cc1 (stereo not given)	73*	i	-1	-2	-1	.	4	2
COc1ccc(/C=N/NC(=O)c2cc(C)oc2C)cc1OC	-2	i	1	0	0	.	-2	-24

Next entries follow:
Molecule	Env fusion inh	Rce1 inhib	PABP polyA inh	MT1-MMP act inh RFP	MT1-MMP act inh	Yeast UUG start	eIF4H inh	CSC inhib
COc1ccccc1CN1CC(C(=O)NCc2ccc(N3CCCC3=O)cc2)CCC1=O (stereo not given)	-7	i	3	5	2	5	-5	.
CCCn1c(CNc2ccc(Br)cc2)nc2ccccc21	.	i	3	-24	-3	-5	2	10
CN(C)c1cccc(C(=O)NCCCSc2ccccc2)c1	-15	i	-1	-3	1	-5	-5	2
Cc1sc2ncnc(NCC(O)c3ccc([N+](=O)[O-])cc3)c2c1C (stereo not given)	11	i	8	-29	-2	-8	-11	-7
Cc1ccc(NS(=O)(=O)c2ccc(C)c(NC(=O)COc3ccc4ccccc4c3)c2)c(C)c1	12	i	0	-11	-5	-9	-11	16
Cc1ccc(C)c(S(=O)(=O)Nc2ccc(C(=O)N3CCOCC3)cc2)c1	5	.	.	-2	-3	17	.	.
CCOc1ccc(NC(=O)c2ccc(NC(=O)c3ccc(NC(N)=O)cc3)cc2)cc1	-4	.	.	0	3	-5	.	-1
COC(=O)c1c(NC(=O)Cc2cccs2)sc2c1CCC(C)C2 (stereo not given)	.	i	6	-9	-7	-16	2	80*
COc1ccccc1NC(=O)CNC(=O)c1ccc([N+](=O)[O-])cc1	9	i	0	1	-3	-14	-4	-3

High-throughput results from PubChem BioAssay.
